MbtI inh – MbtI salicylate synthase inhibitors, primary screen, biochemical, fluorescence intensity | P9WFX0 | purified MbtI enzyme, fluorescence intensity read-out | inhibition, %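 (about 17 µg/mL by stock and volumes)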 | 0.89% of 100,000 active | AID 493033, 2011;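 active means above 50% in both replicates, above 80% if mildly self-fluorescent; inactive means the rest, strongly fluorescent compounds included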;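 further: 0% = mean of negative and 100% = mean of positive controls; one replicate is shown; some compounds called inactive have numbers as strong as hits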
Target sequence (P9WFX0 whole entry, looked up): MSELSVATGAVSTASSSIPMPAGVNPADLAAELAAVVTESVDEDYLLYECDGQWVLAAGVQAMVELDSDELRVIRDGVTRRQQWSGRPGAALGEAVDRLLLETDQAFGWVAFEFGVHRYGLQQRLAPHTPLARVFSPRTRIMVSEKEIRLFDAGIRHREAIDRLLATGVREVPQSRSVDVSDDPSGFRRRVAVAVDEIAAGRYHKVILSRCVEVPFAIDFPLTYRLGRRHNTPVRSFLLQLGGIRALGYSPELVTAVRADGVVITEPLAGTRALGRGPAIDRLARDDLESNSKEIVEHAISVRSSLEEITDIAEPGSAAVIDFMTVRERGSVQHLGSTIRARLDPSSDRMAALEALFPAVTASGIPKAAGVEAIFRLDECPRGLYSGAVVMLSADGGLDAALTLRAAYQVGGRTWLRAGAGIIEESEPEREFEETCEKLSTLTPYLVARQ
Mtb MenB inh – M. tuberculosis MenB inhibitors, primary screen, biochemical, absorbance; 1,4-dihydroxy-2-naphthoyl-CoA synthase (Mycobacterium tuberculosis (strain ATCC 25618 / …; MenB enzyme assay, absorbance read-out; some hits fall short of the stated cut; inhibition, %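 (about 12 µg/mL by stock and volumes)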; 0.43% of 100,000 active; AID 540299, 2011;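 active means mean of two replicates above 30%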;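 further: 0% = no compound and 100% = wells with inactive enzyme; the first replicate is given; strong numbers were not always called active; inactives centre near -10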
Target sequence (P9WNP5 whole entry, looked up): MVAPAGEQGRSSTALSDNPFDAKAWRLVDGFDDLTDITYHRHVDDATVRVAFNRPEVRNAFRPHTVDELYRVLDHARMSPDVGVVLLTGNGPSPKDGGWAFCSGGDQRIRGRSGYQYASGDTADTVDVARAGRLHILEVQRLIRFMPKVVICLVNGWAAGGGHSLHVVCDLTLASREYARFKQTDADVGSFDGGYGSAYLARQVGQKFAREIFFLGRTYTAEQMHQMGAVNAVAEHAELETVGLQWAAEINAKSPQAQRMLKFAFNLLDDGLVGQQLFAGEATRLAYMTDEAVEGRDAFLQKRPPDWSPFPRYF
Polio RdRp inh – poliovirus RdRp elongation inhibitors, primary screen, biochemical, fluorescence polarization, total intensity | Genome polyprotein (Poliovirus type 1 (strain Mahoney)), P03300 | poliovirus polymerase elongation; stronger effect = lower value | % elongation, % (compound at 16.7 µg/mL) | 0.66% of 150,000 active; in the data active means % elongation below about 90%; further: some results filed as inactive read as strong as hits
Polio RdRp inh intensity – further read-out of Polio RdRp inh, marked with its call; % elongation; measured here: total intensity read-out; formula for this scale not given here;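 total fluorescence in place of polarization; lower means less elongation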
The depositor's hits bear a star; . = not tested or not shown.

SMILES	MbtI inh	Mtb MenB inh	Polio RdRp inh	Polio RdRp inh intensity
Cc1ccc(-n2ncc3c(=O)n(CC(=O)N(C)C)cnc32)cc1	0.8	-4.4	101.0	103.0
N#Cc1cccc(OCC(=O)NCC(F)(F)F)c1	-45.0	-10.2	101.0	101.0
Clc1ccc2c(N3CCCC3)ccnc2c1	-9.6	-15.7	103.0	102.0
CS(=O)(=O)N1Cc2ccccc2CC1C(=O)Nc1cc(Cl)ccc1N1CCOCC1 (stereo not given)	-1.1	3.3	104.0	109.0
O=c1c2c3c(sc2n2cnnc2n1Cc1ccccc1)CCCC3	7.5	-25.9	100.0	102.0
COC(=O)C1=C(C)NC2=C(C(=O)CC(c3ccc(OC)cc3)C2)C1c1cccc2ccccc12 (stereo not given)	.	-33.6	104.0	107.0
CCc1ccc(NC(=O)CC(C)S(=O)(=O)c2ccc3c(c2)CCN3C(C)=O)cc1 (stereo not given)	-10.1	5.4	103.0	102.0
Cc1ccc(C)c(OC(=O)c2ccc(N3CCCC3=O)cc2)c1C	2.0	6.8	97.0	107.0
Cc1ccc(-n2nc3ccc(N)cc3n2)cc1	86.8	-8.3	99.0	101.0
Cc1ccc(S(=O)(=O)NCCSc2cc(C(F)(F)F)nc3ccccc23)cc1	-0.7	0.7	103.0	95.0
O=C(COCc1cc(-c2ccc(F)cc2)on1)NCc1cccs1	5.8	-25.0	104.0	104.0
COc1cccc(C(=O)CC#N)c1	-8.2	-0.1	104.0	105.0
Cc1ccc(C)c(S(=O)(=O)N/N=C/c2ccc(N(C)C)cc2)c1	-26.0	-25.5	102.0	97.0
CCC(CC)NS(=O)(=O)c1cccs1	-24.4	-0.9	100.0	102.0
O=C(O)CCSc1n[nH]c(=S)s1	64.0	-17.8	97.0	97.0
O=C(NC(=S)Nc1nc(-c2ccc(Cl)cc2)cs1)C1CC1	-9.5	-11.3	108.0	109.0
CC(C)(C)c1ccc(CSCc2nc3ccccc3[nH]2)cc1	-4.8	-27.4	106.0	99.0
CC1(C)CC(NC(=O)C(F)(F)F)C(NC(=O)C(F)(F)F)C(C)(C)N1 (stereo not given)	.	-22.4	105.0	109.0
CCC(=O)Nc1ccccc1N1CCN(C(=O)CC)CC1	-6.4	5.1	99.0	103.0
Cc1ccc2c(Cl)cc(Cl)c(OC(=O)C3CC3)c2n1	20.5	-18.1	107.0	109.0
O=C(NC(=O)C(F)(F)F)N1CCCc2ccccc21	2.9	-16.1	100.0	96.0
O=C(COc1ccc(Cl)cc1Cl)Nc1ccc(-c2nnc3n2CCCCC3)cc1	-2.1	-10.0	105.0	100.0
O=C(O)C1CCOCC1	-1.4	-4.5	103.0	101.0
N#Cc1c(-c2ccco2)c2c([nH]c1=O)-c1ccccc1OC2	104.7	-15.7	95.0	114.0
CCOC(=O)CCn1ccc(=O)[nH]c1=O	7.8	12.9	101.0	103.0

Following part:
SMILES	MbtI inh	Mtb MenB inh	Polio RdRp inh	Polio RdRp inh intensity
COc1c(O)c2c(=O)cc(OC)c3c4c(OC)cc(=O)c5c(O)c(OC)c(C[C@@H](C)OC(=O)c6ccccc6)c(c(c1C[C@@H](C)OC(=O)Oc1ccc(O)cc1)c23)c54	-10.2	.	100.0	100.0
C=CCSc1ccccc1N	50.1	-28.9	105.0	114.0
O=C(CN1N=C(c2ccccc2)CCC1=O)NCCN1CCN(c2ccccc2F)CC1	-21.6	-18.4	101.0	103.0
CN(C)CCNC(=O)c1cc(-c2cccs2)nc2ccccc12	-29.8	.	100.0	97.0
Cc1ccc(NC(=O)C2CC2)cc1NC(=O)C1CC1	-4.4	0.9	102.0	102.0
CC1Cc2ccccc2N1C(=O)CSc1nnc(CSc2ncccn2)n1C (stereo not given)	3.8	-39.0	102.0	99.0
CC(=O)O/N=C(\C)c1[nH]c(C)c(/C(C)=N/OC(C)=O)c1C	11.6	-30.6	98.0	107.0
NN1C(=O)c2ccccc2C1=O	20.0	-24.8	105.0	108.0
CN(Cc1ccco1)C(=O)CSc1nn2c(=O)c(C(C)(C)C)nnc2s1	6.8	-30.4	97.0	97.0
N#CC1C(=S)NC2=C(CCCC2)C12CCCCC2 (stereo not given)	7.4	-63.4	.	.
CCOc1ccc(-c2nc(CN3CCN(S(=O)(=O)c4ccc(Cl)cc4)CC3)cs2)cc1	29.6	-23.0	104.0	113.0
CCCCNC(=O)C1CCN(S(=O)(=O)c2cnc[nH]2)CC1	7.3	-1.6	99.0	104.0
Cc1ccc(-c2cn3c4ccccc4nc3n2CCCN2CCCCC2)cc1	.	-8.6	90.0*	89.0*
CNC(=O)Cn1cc2c(n1)-c1c(oc(C(=O)N3CCCC3)c1C)CC2	-10.4	-0.1	102.0	107.0
OCCc1nc2ccccc2s1	-2.1	0.0	.	.
CC1CCC2(CC1)NC(=O)N(NC(=S)NCc1ccc3c(c1)OCO3)C2=O (stereo not given)	66.8*	-28.9	103.0	109.0
N#Cc1c2c(c(-n3ccnc3)n3c1nc1ccccc13)CCC2	3.3	-7.9	102.0	103.0
CCN(Cc1ccccc1)c1ccc(C=Nc2ccc(O)cc2)cc1	-4.8	.	103.0	106.0
COc1ccc2c(CC(=O)OCc3cccc(C#N)c3)coc2c1	10.3	-0.7	99.0	108.0
COc1ccc(-c2cc(C(F)F)n3ncc(C(=O)N4CC(C)OC(C)C4)c3n2)cc1 (stereo not given)	17.6	13.7	100.0	104.0
O=C(c1ccco1)N1CCN(C(=O)c2cc3c(s2)CCCC3)CC1	-2.4	.	103.0	106.0
Cc1cc(=O)oc2cc(OCC(=O)N3CCCC3)ccc12	103.0	.	100.0	101.0
O=C(NCc1ccccc1)c1ccc2c(c1)N(Cc1ccccc1)C(=O)CS2=O (stereo not given)	7.2	-17.0	102.0	100.0
C=CCc1ccc(OCC(=O)ONN)c(OC)c1	-1.8	8.1	96.0	99.0
O=C(CSc1ccc2c(c1)CCC2)NN1C(=O)NC2(CCCCC2)C1=O	-4.8	-21.5	101.0	104.0

The list continues:
SMILES	MbtI inh	Mtb MenB inh	Polio RdRp inh	Polio RdRp inh intensity
Cc1cccc(-c2nnc3sc(NC(=O)COc4ccccc4F)nn23)c1	14.2	-1.8	103.0	103.0
Cc1nccc(-c2cccc(NS(=O)(=O)c3ccccc3C(F)(F)F)c2)n1	-9.9	2.7	104.0	111.0
CC1C(=O)OC2C1CCC1(C)CCC(=O)C(C)C21 (stereo not given)	10.8	-13.2	100.0	102.0
O=C(c1ccccc1)C(Sc1ncn[nH]1)c1ccccc1 (stereo not given)	1.2	-17.3	104.0	107.0
O=C(CSc1nnc2n1CCCCC2)N(Cc1cccs1)c1ccc2c(c1)OCCO2	-10.9	-32.6	106.0	117.0
FC(F)(F)c1nnc2n1N=C(c1cc3ccccc3o1)CS2	-14.9	7.2	98.0	110.0
CCOCCCn1c(SCC(=O)/C(C#N)=C(\C)N)nc2ccccc2c1=O	4.0	-22.7	103.0	99.0
Cc1ccc2oc(C(=O)Nc3ccc(S(N)(=O)=O)cc3)cc(=O)c2c1	-1.2	-6.9	100.0	102.0
CCc1ccc(NS(=O)(=O)c2ccc3c(c2)SCC(=O)N3)cc1	0.1	0.8	99.0	99.0
CCN(CC(=O)Nc1ccccc1OC)C(C)C(=O)c1[nH]c(C)c(C(=O)OC)c1C (stereo not given)	0.5	-2.5	99.0	100.0
O=S1(=O)C=C2C(C1)SC(=S)N2C1CCS(=O)(=O)C1 (stereo not given)	0.2	-4.8	99.0	107.0
O=C(CN1CCC(n2nnc3ccccc32)CC1)Nc1ccccc1Cl	-3.5	-31.9	100.0	101.0
Cc1ccc(C(=O)Nc2cc(C)cc(C)c2)cc1	-3.0	-26.1	106.0	99.0
Cc1ccc(NC(=O)c2ccc(-n3nc(C(F)(F)F)c4c3-c3ccoc3CC4)cc2)cc1	-6.0	-15.5	104.0	103.0
COc1ccccc1N(C)C(=O)c1cc(S(=O)(=O)N2CCCC2)cn1C	-8.9	-5.8	100.0	102.0
O=C(O)CON=C1c2ccccc2-c2ccccc21	14.4	10.8	.	.
CC1(C)OC(=O)C(=Cc2ccc(-c3ccc(S(N)(=O)=O)cc3)o2)C(=O)O1	-100.8	1.8	103.0	105.0
CC(C)c1ccc(NC(=O)COc2nncc3ccccc23)cc1	-0.8	.	102.0	101.0
CS(=O)(=O)Nc1ccc2c(c1)nc1n2CCN(Cc2ccccc2)C1	-24.6	-1.9	104.0	104.0
COc1ccc(CN(C)C(=O)CSc2nc(C)cs2)cc1OC	-9.4	-10.4	107.0	102.0
NC(=O)C1CCN(C(=O)CCC(=O)N2CCOc3ccc(Cl)cc32)CC1	0.1	-4.3	103.0	102.0
Cc1ccccc1Cn1c(=O)n(CC2CCC(C(=O)NCc3ccccc3)CC2)c(=O)c2ccccc21 (stereo not given)	11.4	-10.6	103.0	101.0
NNC(=O)CCN1CCCCC1	22.5	-10.9	99.0	102.0
COCCn1c(N)c(-c2nc3ccccc3[nH]2)c(O)c1N=Nc1ccc(F)c(F)c1	41.2	-62.7	115.0	211.0
COc1ccc(CN(C)Cc2nc3cc(Cl)ccc3c(=O)[nH]2)c(OC)c1	-16.0	8.7	106.0	111.0

A second format for some results above.
Compound | MbtI inh | Mtb MenB inh | Polio RdRp inh | Polio RdRp inh intensity
O=C(CN1CCC(n2nnc3ccccc32)CC1)Nc1ccccc1Cl | -3.5 | -31.9 | 100.0 | 101.0
COc1ccccc1N(C)C(=O)c1cc(S(=O)(=O)N2CCCC2)cn1C | -8.9 | -5.8 | 100.0 | 102.0
CC1C(=O)OC2C1CCC1(C)CCC(=O)C(C)C21 (stereo not given) | 10.8 | -13.2 | 100.0 | 102.0
Cc1nccc(-c2cccc(NS(=O)(=O)c3ccccc3C(F)(F)F)c2)n1 | -9.9 | 2.7 | 104.0 | 111.0
CCc1ccc(NS(=O)(=O)c2ccc3c(c2)SCC(=O)N3)cc1 | 0.1 | 0.8 | 99.0 | 99.0
O=C(O)CON=C1c2ccccc2-c2ccccc21 | 14.4 | 10.8 | . | .

4 entries from above, as comma-separated lines:
compound,MbtI inh,Mtb MenB inh,Polio RdRp inh,Polio RdRp inh intensity
FC(F)(F)c1nnc2n1N=C(c1cc3ccccc3o1)CS2,-14.9,7.2,98.0,110.0
CCOCCCn1c(SCC(=O)/C(C#N)=C(\C)N)nc2ccccc2c1=O,4.0,-22.7,103.0,99.0
Cc1ccc2oc(C(=O)Nc3ccc(S(N)(=O)=O)cc3)cc(=O)c2c1,-1.2,-6.9,100.0,102.0
CCc1ccc(NS(=O)(=O)c2ccc3c(c2)SCC(=O)N3)cc1,0.1,0.8,99.0,99.0

Further structures.
SMILES	MbtI inh	Mtb MenB inh	Polio RdRp inh	Polio RdRp inh intensity
CN1C(=O)C(=Cc2cccn2C(C)(C)C)C(=O)N(C)C1=S	4.8	-73.6	98.0	102.0
Cc1nn(Cc2ccccc2)c(Cl)c1C(=O)OCC(=O)N(C)C1CCS(=O)(=O)C1 (stereo not given)	-4.6	-19.0	99.0	106.0
CC(Sc1nnc2c(Cl)cc(Cl)cn12)c1nnc(-c2cccs2)o1 (stereo not given)	17.2	-4.3	98.0	94.0
O=P(O)(CN1CCCCC1)C1CCCCC1O (stereo not given)	-5.0	-1.5	99.0	100.0
CCOC(=O)c1ccc(-c2coc3cc(OC(C)=O)c(CC)cc3c2=O)o1	3.0	11.0	102.0	107.0
COc1ccc(C2(Cc3nc4ccccc4[nH]3)C(=O)c3ccccc3C2=O)cc1	.	7.4	45.0	249.0
CCOC(=O)C(C)ON1C(=O)c2ccccc2C1=O (stereo not given)	1.7	-31.4	102.0	99.0
Cc1ccc(NC(=O)CN(C)C(=O)Cc2ccccc2F)cc1	-2.9	-24.3	101.0	105.0

Among those listed so far, 7 have a CF3 group:
SMILES	MbtI inh	Mtb MenB inh	Polio RdRp inh	Polio RdRp inh intensity
N#Cc1cccc(OCC(=O)NCC(F)(F)F)c1	-45.0	-10.2	101.0	101.0
Cc1ccc(S(=O)(=O)NCCSc2cc(C(F)(F)F)nc3ccccc23)cc1	-0.7	0.7	103.0	95.0
CC1(C)CC(NC(=O)C(F)(F)F)C(NC(=O)C(F)(F)F)C(C)(C)N1 (stereo not given)	.	-22.4	105.0	109.0
O=C(NC(=O)C(F)(F)F)N1CCCc2ccccc21	2.9	-16.1	100.0	96.0
Cc1nccc(-c2cccc(NS(=O)(=O)c3ccccc3C(F)(F)F)c2)n1	-9.9	2.7	104.0	111.0
FC(F)(F)c1nnc2n1N=C(c1cc3ccccc3o1)CS2	-14.9	7.2	98.0	110.0
Cc1ccc(NC(=O)c2ccc(-n3nc(C(F)(F)F)c4c3-c3ccoc3CC4)cc2)cc1	-6.0	-15.5	104.0	103.0

Source: PubChem BioAssay (ICCB-Longwood Screening Facility, Harvard Medical School)
